STK33 kinase inh = inhibitors of purified STK33 kinase, primary screen, biochemical, ADP-Glo luminescence, homogeneous, cell-free. Serine/threonine-protein kinase 33 (Homo sapiens), Q9BYT3. MBP phosphorylation. inhibition, % at 10 µM. 320,000 compounds, 0.073% hits;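 active = inhibition at or above 25%, using the most active replicate where run in duplicate; inactive = inhibition below 25%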
Target sequence (Q9BYT3 whole entry, looked up): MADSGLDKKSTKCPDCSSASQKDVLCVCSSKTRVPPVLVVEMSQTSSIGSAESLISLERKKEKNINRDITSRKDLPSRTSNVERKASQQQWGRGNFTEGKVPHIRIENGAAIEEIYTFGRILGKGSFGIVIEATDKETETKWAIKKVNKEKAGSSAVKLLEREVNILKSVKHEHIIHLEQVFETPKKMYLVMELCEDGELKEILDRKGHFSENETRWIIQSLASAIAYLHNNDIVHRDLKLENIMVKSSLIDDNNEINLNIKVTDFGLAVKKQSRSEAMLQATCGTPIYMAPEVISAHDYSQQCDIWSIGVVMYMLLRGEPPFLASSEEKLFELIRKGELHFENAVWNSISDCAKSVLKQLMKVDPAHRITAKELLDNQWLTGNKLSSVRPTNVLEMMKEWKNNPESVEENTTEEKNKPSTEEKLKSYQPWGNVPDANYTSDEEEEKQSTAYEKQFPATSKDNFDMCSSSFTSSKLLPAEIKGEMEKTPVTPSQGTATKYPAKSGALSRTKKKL
* marks the source's active call; other numbers are inactive results; & = joins results of further samples.

Screening COc1cccc(NC(=O)c2cccc(C(=O)Nc3cccc(OC)c3)c2)c1 returned STK33 kinase inh -1.0.
Screening COc1cccc(NC(=O)CSc2nnnn2C2CCCC2)c1 returned STK33 kinase inh -1.2.
For CCOC(=O)/C(C#N)=C1\Nc2ccccc2N=C1N(CC(C)C)CC(C)C the results were STK33 kinase inh -0.3.
Cc1c(C)n(CC(O)CNc2ccccc2)c2ccccc12 (stereo not drawn) was read as STK33 kinase inh -1.2.
Cc1ccc(CSCc2ccc(C(=O)O)o2)cc1 was read as STK33 kinase inh -0.9.
`Cc1ccccc1Cn1nc(C)c(NC(=O)c2noc3c2CCc2ccccc2-3)c1C` gave STK33 kinase inh -0.4.
For Cc1cccc(C)c1NC(=O)CSc1nnc(Cc2ccccc2)o1 the results were STK33 kinase inh -1.3.
O=C(CSc1ncn[nH]1)NCCC(c1ccccc1)c1ccccc1 was read as STK33 kinase inh -0.4.
`NC(=O)C1CCN(C(=O)/C=C/c2ccco2)CC1` gave STK33 kinase inh 0.1.
Screening CC(/C=N/NC(=O)Cc1cccn1C)=C\c1ccccc1 returned STK33 kinase inh -1.0.
`CN(c1ccc(OCC(=O)NC2=NCCS2)cc1)S(=O)(=O)c1ccc(F)cc1` gave STK33 kinase inh 1.5.
Cc1ccc(CC(=O)Nc2nc3ccccc3[nH]2)cc1C was read as STK33 kinase inh -0.2.
Screening O=C1NC(c2ccc(-c3ccccc3[N+](=O)[O-])o2)C(C(=O)c2ccccc2)C(O)(C(F)(F)F)N1 (stereo not drawn) returned STK33 kinase inh 1.8.
`Cc1cc(Cl)ccc1OCc1cn2cccnc2n1` gave STK33 kinase inh -0.2.
Screening CCN(CC)c1ccc(N)cc1S(=O)(=O)Nc1ccccc1OC returned STK33 kinase inh -0.5.
`FC(F)(F)c1ccc(N2CCOCC2)c(Nc2nc3ccccc3n3cnnc23)c1` gave STK33 kinase inh -0.6.
Screening CCc1nc2ccc(C(=O)NC3CCC(C)CC3)cc2nc1CC (stereo not drawn) returned STK33 kinase inh -0.7.
Cc1cc(C)n(Cc2ccccc2Cl)n1 was read as STK33 kinase inh -0.4.
For CCCCc1cc(=O)oc2cc(OCC(=O)N[C@@H](Cc3ccccc3)C(=O)O)ccc12 the results were STK33 kinase inh -1.6.
`Cc1ccc2nsnc2c1NC(=O)c1ccccc1[N+](=O)[O-]` gave STK33 kinase inh -0.7.
`COc1cc2c(cc1OC)CN(CC(=O)Nc1ccc(C#N)cc1)CC2` gave STK33 kinase inh -0.2.
Screening Cc1ccc(S(=O)(=O)N(C)CC(=O)NCCc2c[nH]c3ccccc23)cc1 returned STK33 kinase inh -1.1.
Screening O=C(COc1ccc([N+](=O)[O-])cc1)NCc1cccnc1 returned STK33 kinase inh 0.1.
CCCn1c(N)c(C(=O)COc2ccc(Br)cc2F)c(=O)n(C)c1=O was read as STK33 kinase inh -1.3.
For Cn1cncc1COC(=O)c1ccc(Cl)cc1 the results were STK33 kinase inh -0.6.
Screening O=C(CN1C(=O)c2cccc3cccc1c23)NCC1CCCO1 (stereo not drawn) returned STK33 kinase inh -0.6.
CCSc1ncc(/C=N/Nc2ccc(F)cc2)n1C was read as STK33 kinase inh -1.9.
Screening O=C(CCc1nnc(-c2ccccc2)o1)NCc1cc(F)ccc1F returned STK33 kinase inh -0.2.
CC(C)C(=O)Nc1nnn(C)n1 was read as STK33 kinase inh -0.2.
COc1ccc(C(CNC(=O)CSc2ccccc2C)N(C)C)cc1 (stereo not drawn) was read as STK33 kinase inh -1.1.
`CCNc1nc(NCC)nc(OCCNS(=O)(=O)c2cc(C)ccc2C)n1` gave STK33 kinase inh -0.1.
`COc1cc(OC)c(C(=O)Nc2cccc3ccccc23)cc1OC` gave STK33 kinase inh -1.3.
For CC(C)NC(=O)NC(=O)COC(=O)c1ccccc1Oc1ccccc1 the results were STK33 kinase inh -1.5.
Screening O=C(CCCN1C(=O)c2ccccc2C1=O)NC1CCCCCC1 returned STK33 kinase inh -0.8.
Screening O=c1c2ccccc2nc(-c2ccccc2Cl)n1O returned STK33 kinase inh -0.9.
`COCCn1c(SCC(=O)Nc2cc(C)on2)nc2cc(Cl)ccc2c1=O` gave STK33 kinase inh 0.7.
Screening CC(C)N1CCN(Cc2ccc3c(c2)Cc2ccccc2-3)CC1CCO (stereo not drawn) returned STK33 kinase inh -2.8.
`Cc1nn2c(COc3ccc(NC(=O)c4ccccc4Cl)cc3)nnc2c2ccccc12` gave STK33 kinase inh -0.4.
Screening CNC(=O)Oc1ccc2c(c1)[C@]1(C)CCN(C)C1N2C (stereo partly drawn) returned STK33 kinase inh -0.9&-1.9.
`COc1ccc(OC)c(CCNC(=O)CSc2ccsc2[N+](=O)[O-])c1` gave STK33 kinase inh -2.3.
O=C(Nc1cccc2c1CCCC2)c1cc([N+](=O)[O-])ccc1Cl was read as STK33 kinase inh 0.2.
Screening COC(=O)c1c(C)c2c(C)cc3ccccn3c-2c1C(=O)OC returned STK33 kinase inh 0.6.
For Cc1nnc(SCC(=O)N/N=C/c2cn(-c3ccccc3)nc2-c2ccccc2)n1-c1ccccc1 the results were STK33 kinase inh 0.0.
COc1ccc(/C=C(\NC(=O)c2ccccc2)C(=O)NCc2ccco2)cc1 was read as STK33 kinase inh -1.7.
Screening Cn1c(CCN2CCN(c3ccccn3)CC2)nc2cc(NS(=O)(=O)c3ccccc3)ccc21 returned STK33 kinase inh -1.6.
N#CC1=C(Nc2ccc(Br)cc2)CCC1 was read as STK33 kinase inh -1.9.
Screening CCOc1ccc(C(=O)CCC(=O)N2CCN(c3ccc(O)cc3)CC2)cc1 returned STK33 kinase inh 7.3.
CC(=O)c1c(C)[nH]c(C(=O)N2c3ccccc3CC2C)c1C (stereo not drawn) was read as STK33 kinase inh -1.1.
Screening COc1ccc(C2(O)CCN(Cc3nnnn3Cc3ccc(C)cc3)CC2)cc1 returned STK33 kinase inh -0.8.
`CCN(CC1CCCN(CCc2cccc(OC)c2)C1)C(=O)c1ccc(COC)o1` (stereo not drawn) gave STK33 kinase inh -1.6.
For O=c1c2ccccc2ncn1CCOCCOc1cccc(Br)c1 the results were STK33 kinase inh 0.1.
COc1cccc(CNC(=O)CN2C(=O)COc3ccc(S(=O)(=O)N4CCCCC4)cc32)c1 was read as STK33 kinase inh -1.2.
CCC(C(=O)OC)n1cnc2c(cnn2-c2ccc(Cl)cc2)c1=O (stereo not drawn) was read as STK33 kinase inh 0.2.
O=C(CSc1nnnn1C1CCCCC1)Nc1cccc(NC(=O)c2ccco2)c1 was read as STK33 kinase inh -0.5.
Screening CC(=O)c1ccc(Sc2ccccc2)cc1 returned STK33 kinase inh -1.5.
Screening COc1ccc(CCNc2ncnc3c2[nH]c2cc(OC)c(OC)cc23)cc1OC returned STK33 kinase inh 1.7.
For Cc1cc(NC(=O)Cn2nc(C(=O)O)c3ccccc3c2=O)c([N+](=O)[O-])cc1C the results were STK33 kinase inh -1.3.
For CCN1C(=O)N[C@@H](c2cccc(C(F)(F)F)c2)C(C(C)=O)=C1C the results were STK33 kinase inh -1.7.
For Cc1ccccc1NC(=O)Nc1cc(-c2ccccc2)nn1C the results were STK33 kinase inh -0.5.
For CC(=O)n1cc([C@H]2C=C(C(=O)N3CCOCC3)O[C@@H](OCc3ccc(CO)cc3)C2)c2ccccc21 the results were STK33 kinase inh 0.3.
CCC(C(=O)N1CCN(C(=O)c2ccco2)CC1)c1ccccc1 (stereo not drawn) was read as STK33 kinase inh -0.3.
`COc1cc(OC)cc(C(=O)NNC(=O)C(=O)Nc2cc(OC)c(Cl)cc2OC)c1` gave STK33 kinase inh -1.3.
`CN(CC(=O)Nc1ccc(Cl)c(Cl)c1)CC(=O)Nc1ccc2c(c1)OCO2` gave STK33 kinase inh -1.2.
COc1cc(C)ccc1S(=O)(=O)NC1CC(C)(C)NC(C)(C)C1 was read as STK33 kinase inh -3.5.
For CCN(C(=O)c1ccc(N2CC3CC(C2)c2cccc(=O)n2C3)c(NC(=O)c2ccncc2)c1)c1cccc(C)c1 (stereo not drawn) the results were STK33 kinase inh 1.1.
`CCOC(=O)c1ccc(NC(=O)Cn2nnc(-c3ccccc3C)n2)cc1` gave STK33 kinase inh -2.0.
Screening O=C(Nc1ccc(Br)cn1)c1ccc2ccccc2c1 returned STK33 kinase inh -2.3.
For O=C(NCC1CCCO1)C(=O)N/N=C/c1c(F)cccc1Cl (stereo not drawn) the results were STK33 kinase inh -1.3.
`COC(=O)C1=C(C)N(CCCC(=O)O)C(=O)NC1c1cccc2ccccc12` (stereo not drawn) gave STK33 kinase inh -0.2.
`Cn1c(=O)c2c(ncn2CC(=O)OCC(=O)Nc2ccc(F)cc2Cl)n(C)c1=O` gave STK33 kinase inh -1.1.
COc1ccc(CN2CCNC(=O)C2CC(=O)NCCCC2CCCC2)c(C)c1C (stereo not drawn) was read as STK33 kinase inh 0.6.
`Cc1noc(C)c1COc1ccc(C(=O)NCc2cccs2)cc1` gave STK33 kinase inh 2.8.
COc1ccccc1NC(=S)NC1CCCCCCCCCCC1 was read as STK33 kinase inh -0.5.
Screening O=C(Nc1ccc(F)cc1)N1CCN(C(=O)C2CCCO2)CC1 (stereo not drawn) returned STK33 kinase inh 0.0.
`COc1ccc(OC)c(N(CC(N)=O)S(=O)(=O)c2ccc(OC)c(OC)c2)c1` gave STK33 kinase inh -2.1.
`CCCN1CCCc2cc(CN)ccc21` gave STK33 kinase inh 1.7.
Screening COc1ccc(-c2nc(CS(=O)CC(=O)NCCCN3CCOCC3)c(C)o2)cc1OC (stereo not drawn) returned STK33 kinase inh -2.1.
`O=C(Cn1nnc(-c2ccncc2)n1)Nc1ccc2c(c1)CCC2` gave STK33 kinase inh -1.1.
Screening CC(=O)c1ccc(OCC(O)CN2CC(C)OC(C)C2)cc1 (stereo not drawn) returned STK33 kinase inh -1.2.
For Cc1cc(Oc2nc3c(C)cccn3c(=O)c2/C=C(\C#N)S(=O)(=O)c2ccccc2)ccc1Cl the results were STK33 kinase inh -0.3.
`Cc1c(-n2c(SCC(=O)N(C)C3CCS(=O)(=O)C3)nc3ccccc3c2=O)c(=O)n(-c2ccccc2)n1C` (stereo not drawn) gave STK33 kinase inh -1.0.
For COc1ccc(N(CC(=O)NCc2ccc3c(c2)OCO3)C(=O)CCC(=O)Nc2ccccn2)cc1 the results were STK33 kinase inh -0.6.
For CN(CC(=O)Nc1cccc(F)c1)C(=O)c1cccnc1Sc1ccccc1 the results were STK33 kinase inh -0.7.
Cc1ccc(C(C)C)c(OCC(=O)NNC(=O)Nc2ccccc2)c1 was read as STK33 kinase inh -1.3.
CCOC(=O)CNC(=O)CSc1nc2cccnc2n1C was read as STK33 kinase inh -0.7.
Screening COc1cccc(NC(=O)C2CCN(S(=O)(=O)c3ccc4[nH]c(=O)ccc4c3)CC2)c1 returned STK33 kinase inh 0.0.
For CCOC(=O)c1ccc(NC(=O)CSCCC(=O)O)cc1 the results were STK33 kinase inh -1.1.
`CCn1c(=O)cc(OCC(=O)N2CCN(c3ccc(F)cc3)CC2)c2ccccc21` gave STK33 kinase inh -1.4.
`Cc1ccc(NC(=O)c2c(Cl)nc3ccccn23)cc1` gave STK33 kinase inh -1.2.
`COc1ccc(C(=O)NC2CC2)cc1OC1CCN(C/C=C/c2ccccc2)CC1` gave STK33 kinase inh 1.5.
`COc1ccc(-c2cc(C(=O)N3CCN(c4ccccc4F)CC3)c3ccccc3n2)c(OC)c1` gave STK33 kinase inh 0.5.
COc1ccc(S(=O)(=O)N(C)c2ccc(C(=O)NCC3CCCO3)cc2)cc1OC (stereo not drawn) was read as STK33 kinase inh -2.7.
For O=C(NCCCN1CCOCC1)c1ccc2c(=O)n(Cc3cccc(Br)c3)c(=S)[nH]c2c1 the results were STK33 kinase inh 1.7.
For COc1ccc(NC(=O)Nc2cccc(C)n2)cc1 the results were STK33 kinase inh -1.2.
`Cc1ccccc1NC(=O)Nc1cnccn1` gave STK33 kinase inh -0.1.
`Cc1ccc(C(C(=O)NC2CCCCC2)N(Cc2ccco2)C(=O)Cn2cnc3ccccc32)cc1` (stereo not drawn) gave STK33 kinase inh -0.5.
O=C(Cc1ccc(Cl)cc1)NNC(=O)C1CC=CCC1C(=O)O (stereo not drawn) was read as STK33 kinase inh -3.0.
Screening Cc1nnsc1C(=O)NNC(=O)Nc1ccccc1 returned STK33 kinase inh -1.0.
Screening CC(Oc1ccc(Cl)cc1Cl)C(=O)N(C)c1ccccc1 (stereo not drawn) returned STK33 kinase inh -0.6.
Screening CC1CCCC(C)N1C(=O)CSc1nnc(NC(=O)Cc2cccs2)s1 (stereo not drawn) returned STK33 kinase inh -0.9.
For O=C(OCc1cc2ccccc2[nH]c1=O)c1ccccn1 the results were STK33 kinase inh -0.8.

Screens (PubChem)

This is a subset, and most or all hits are left out here.
